PV pol inh = poliovirus RdRp elongation inhibitors, primary screen, biochemical, fluorescence polarization, total intensity | poliovirus polymerase elongation; stronger effect = lower value | % elongation, % (compound at 16.7 µg/mL) | 150,000 tested, 0.66% active | AID 588519, 2011; in the data active means % elongation below about 90%; further: some results filed as inactive read as strong as hits
Target sequence (P03300 1749-2209 limits assumed): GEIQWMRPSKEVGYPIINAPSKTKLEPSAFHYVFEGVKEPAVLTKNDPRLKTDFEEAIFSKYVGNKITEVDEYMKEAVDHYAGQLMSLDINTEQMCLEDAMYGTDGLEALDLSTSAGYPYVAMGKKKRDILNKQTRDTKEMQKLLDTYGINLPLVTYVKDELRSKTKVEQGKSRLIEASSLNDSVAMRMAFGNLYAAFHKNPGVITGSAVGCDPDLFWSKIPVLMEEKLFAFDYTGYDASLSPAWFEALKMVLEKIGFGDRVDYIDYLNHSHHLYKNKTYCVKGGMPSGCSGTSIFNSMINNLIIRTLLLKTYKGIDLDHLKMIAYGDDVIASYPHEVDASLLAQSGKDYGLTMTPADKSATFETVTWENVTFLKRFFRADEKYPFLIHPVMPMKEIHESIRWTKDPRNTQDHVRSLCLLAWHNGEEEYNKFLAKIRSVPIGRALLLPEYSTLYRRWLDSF
PV pol inh intensity = also measured in PV pol inh; calls as there; % elongation; measured here: total intensity read-out; formula for this scale not given here;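 total fluorescence in place of polarization; lower means less elongation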
* marks the source's active call; other numbers are inactive results. These rows are one share of the data, so the mix of outcomes need not match the whole.

SMILES	PV pol inh	PV pol inh intensity
C=Cc1ccc(CSc2nc(-c3ccc(Cl)cc3)nc3c2Cc2c(CO)cnc(C)c2O3)cc1	111	115
CC(=O)c1ccc(NC(=O)c2cc(C3CC3)nc3c2c(C)nn3-c2ccc(C)cc2)cc1	113	116
Cc1ccc(C(C)C)c(OCCn2cc(C(=O)c3ccco3)c3ccccc32)c1	107	109
COc1ccc(N2CCN(C3C(=O)c4ccccc4N3C(C)=O)CC2)cc1 (stereo not given)	109	107
Cc1cccc(CSc2ncc(CO)n2Cc2ccc(F)cc2)c1	109	107
Cc1ccc(NC(=O)CSc2nc(-c3ccco3)nc3cc(=O)[nH]n23)cc1C	114	105
COc1ccc(-n2c(SCC(=O)NCc3ccccc3)nc3n[nH]c(C)c3c2=N)cc1	102	108
CCOc1ccccc1N(CC)C(=O)c1cc2c(=O)[nH]c3ccc(C)cc3c2s1	106	106
Cc1ccc(/C=C(\C#N)c2nc(-c3cc4c(ccc5ccccc54)oc3=O)cs2)cc1	101	109
CCC(Sc1nc2ncccc2[nH]1)C(=O)Nc1cccc(OC)c1 (stereo not given)	114	113
COc1cccc(-n2c(=O)c3c(C)c(C(=O)N(C)C)sc3n(CC(=O)Nc3ccc(C)cc3Cl)c2=O)c1	99	108
COc1ccccc1-c1nc2c(c(SCc3ccc(F)cc3Cl)n1)Cc1c(CO)cnc(C)c1O2	104	106
Cc1ccc(NC(=O)C(Cc2ccccc2)NS(=O)(=O)c2ccc3c(c2)oc(=O)n3C)c(Cl)c1 (stereo not given)	101	104
COc1ccc(OC)c(CNC(=O)Cn2nc(C)c3c(C)n(-c4ccccc4)nc3c2=O)c1	113	113
Cc1nnc(SCC(=O)NCc2ccccc2F)c2nn(-c3ccc(Cl)cc3)c(C)c12	107	111
CC(=O)c1ccc(Nc2cc(C)nc3nc(Cc4ccccc4)nn23)cc1	107	111
Cc1oc(C)c2c(=O)cc(-c3ccc4c(c3)OCO4)cc(OC(=O)c3ccccc3Cl)c12	119	126
CC(C)(C)c1ccc(OCC(=O)NC(Cc2c[nH]c3ccccc23)C(=O)O)cc1 (stereo not given)	102	105
CCCN1C(C(=O)c2ccccc2)=C(OC(=O)c2ccc(OC)cc2)c2ccccc2S1(=O)=O	112	115
COc1ccc(C2=C(C)C(=O)N(Cc3ccc(C(=O)NCc4cccc(C)c4)cc3)S2(=O)=O)cc1	101	93

Compound profiles, as listed above:
Cc1oc(C)c2c(=O)cc(-c3ccc4c(c3)OCO4)cc(OC(=O)c3ccccc3Cl)c12 reads PV pol inh: 119; PV pol inh intensity: 126
Cc1ccc(C(C)C)c(OCCn2cc(C(=O)c3ccco3)c3ccccc32)c1 reads PV pol inh: 107; PV pol inh intensity: 109

Continuation:
SMILES	PV pol inh	PV pol inh intensity
Cc1c(C(=O)N2CCC(C)CC2)c(S(=O)(=O)N2CCN(c3cccc(Cl)c3)CC2)c(C)n1C	107	111
COc1ccc(C(=O)Nc2ccc(OCc3cc(=O)n4ccccc4n3)cc2)cc1	98	106
CCc1ccc(NC(=O)CN2C(=O)CSc3ccc(S(=O)(=O)N(C)C)cc32)cc1	108	105
COc1ccccc1OCCn1c(C(C)Oc2ccccc2)nc2ccccc21 (stereo not given)	103	96
CC(C)CCNC(=O)CN1C(=O)COc2ccc(S(=O)(=O)N3CCOCC3)cc21	100	103
O=c1c(=O)n(-c2ccccc2)ccn1Cc1c(F)cccc1Cl	109	112
CCOc1ccc(N2CC(c3nc4ccccc4n3Cc3ccccc3F)CC2=O)cc1 (stereo not given)	100	94
Cc1oc2ncn(C)c(=O)c2c1C(=O)N(Cc1ccccc1)C(C)C	111	113
COc1ccc(S(=O)(=O)N2CCC(c3ccncc3)CC2)cc1Cl	110	109
Cc1ccc(-n2nnnc2CNC(=O)c2ccc(F)cc2)cc1C	113	99
Cc1nc(N2CCOCC2)c2c(C(=O)N(C)c3ccccc3)c(C)oc2n1	107	113
CCOc1ccc(CCNC(=O)c2cn(CC)c3ccc(S(=O)(=O)N4CCCCCC4)cc3c2=O)cc1OCC	104	112
COc1ccc(C(=O)OCc2cc(=O)n3nc(-c4cccs4)sc3n2)cc1	110	114
Cc1ccc(C(=O)n2nc(-c3ccco3)nc2NCc2cccs2)cc1	110	114
CCOc1ccc(CNC(=O)CCc2c(C)nn(-c3ccc(N4CCCCC4)nn3)c2C)cc1	105	108
Cc1csc2nc(COC(=O)c3ccc(NC(=O)C(C)Oc4ccccc4)cc3)cc(=O)n12 (stereo not given)	111	94
COc1cccc(CNC(=O)CCC(=O)N2CC3CCCN3c3ccccc32)c1 (stereo not given)	109	110
CCCSc1nc2sc3c(c2c(=O)n1-c1ccc(C)c(Cl)c1)CCN(C(C)=O)C3	107	108
O=C(c1cc2c(s1)-c1ccccc1OC2)N1CCN(c2ccccc2F)CC1	101	106
Cc1ccc(NC(=O)c2ccc(NC(=O)N3CCSc4nc(C)cc(C)c43)cc2)c(Cl)c1	104	95
CC(C)CCNC(=O)C(=O)Nc1c2c(nn1-c1ccccc1)CS(=O)(=O)C2	105	106
Cc1noc(-c2ccc(-c3noc(-c4ccc(F)cc4)n3)cc2)n1	98	104
Cc1cc(C)cc(OCC(=O)Nc2cccc3cccnc23)c1	106	110
Cc1ccc(CN2CCCn3nc(C(=O)NCc4ccc(OC(C)C)cc4)cc3C2=O)cc1	109	112
COc1ccc(OC)c(CCNC(=O)c2cnn(-c3ccccc3Cl)c2C2CCN(C(=O)OC(C)(C)C)CC2)c1	110	108
CCOC(=O)c1c(S(=O)(=O)N2CCC(C(=O)NCc3cccc(C)c3)CC2)c(C)n(C)c1C	106	107
Cc1nc(C)c(-c2ccc(SCC(=O)Nc3ccc(F)c(F)c3)nn2)s1	110	115
CCOc1ccc(C(=O)c2cn(Cc3cccc(OC)c3)c3cc4c(cc3c2=O)OCO4)cc1	106	111
CCN(Cc1ccccc1)C(=O)Cn1c(=O)n(-c2ccc(F)c(Cl)c2)c(=O)c2sc3ccccc3c21	109	107
COc1ccc(NC(=O)C2=C(C)Nc3nc(SC)nn3C2c2cc(OC)ccc2OC)cc1 (stereo not given)	106	112
CN(C)c1cccc(C(=O)N2CCC(c3ccncc3)CC2)c1	105	104
O=C(/C=C/c1ccccc1)Nc1nc2n(n1)C(c1ccc(F)cc1)C=C(c1ccccc1)N2 (stereo not given)	103	106
Cc1cc(-c2ccc(S(=O)(=O)Nc3cccc(C(F)(F)F)c3)s2)on1	103	100
O=C(Nc1nnc(S(=O)(=O)N2CCCCCC2)s1)c1ccccc1	101	106
Cc1ccc(NC(=O)C(Cc2ccccc2)NS(=O)(=O)c2ccc3c(c2)oc(=O)n3C)cc1C (stereo not given)	101	105
CCc1ccc2occ(CC(=O)Nc3ccc(C)c(C)c3)c2c1	113	114
Cc1csc2nc(COC(=O)c3ccc(NC(=O)COc4ccccc4F)cc3)cc(=O)n12	112	110
CN(Cc1ccco1)S(=O)(=O)c1nnc(NC(=O)c2ccccc2)s1	109	105
COc1ccccc1CCNC(=O)CCn1c(=O)c2cccn2c2ccc(F)cc21	109	113
COc1cccc(CN2c3ccccc3-c3nc(SCC(=O)Nc4cccc(C)c4)ncc3S2(=O)=O)c1	103	109

Of the compounds above, these have an NH in an aromatic ring.
SMILES	PV pol inh	PV pol inh intensity
Cc1ccc(NC(=O)CSc2nc(-c3ccco3)nc3cc(=O)[nH]n23)cc1C	114	105
COc1ccc(-n2c(SCC(=O)NCc3ccccc3)nc3n[nH]c(C)c3c2=N)cc1	102	108
CCOc1ccccc1N(CC)C(=O)c1cc2c(=O)[nH]c3ccc(C)cc3c2s1	106	106
CCC(Sc1nc2ncccc2[nH]1)C(=O)Nc1cccc(OC)c1 (stereo not given)	114	113
CC(C)(C)c1ccc(OCC(=O)NC(Cc2c[nH]c3ccccc23)C(=O)O)cc1 (stereo not given)	102	105

Copied from the list:
Result for CCN(Cc1ccccc1)C(=O)Cn1c(=O)n(-c2ccc(F)c(Cl)c2)c(=O)c2sc3ccccc3c21 under PV pol inh intensity: 107
Result for Cc1cc(-c2ccc(S(=O)(=O)Nc3cccc(C(F)(F)F)c3)s2)on1 under PV pol inh intensity: 100
Result for CCOC(=O)c1c(S(=O)(=O)N2CCC(C(=O)NCc3cccc(C)c3)CC2)c(C)n(C)c1C under PV pol inh: 106
Result for Cc1ccc(CN2CCCn3nc(C(=O)NCc4ccc(OC(C)C)cc4)cc3C2=O)cc1 under PV pol inh: 109
Result for Cc1cc(C)cc(OCC(=O)Nc2cccc3cccnc23)c1 under PV pol inh: 106
Result for CCc1ccc2occ(CC(=O)Nc3ccc(C)c(C)c3)c2c1 under PV pol inh intensity: 114

The listing picks up with the 2 entries that preceded the break.
SMILES	PV pol inh	PV pol inh intensity
COc1ccccc1CCNC(=O)CCn1c(=O)c2cccn2c2ccc(F)cc21	109	113
COc1cccc(CN2c3ccccc3-c3nc(SCC(=O)Nc4cccc(C)c4)ncc3S2(=O)=O)c1	103	109
Cn1c(=O)c2sccc2n2c(CCC(=O)NCc3ccc(Cl)cc3)nnc12	105	104
CCOC(=O)c1c(NC(C)=O)c2c3c(sc2n1Cc1nc(-c2ccc(Cl)cc2)oc1C)CCCC3	105	110
O=C(NCCc1ccc(Cl)cc1)c1ccc(CSCc2cccc(Cl)c2)o1	107	109
Cc1ccc(CNC(=O)CCc2c(C)nn(-c3ccc(N4CCCCC4)nn3)c2C)cc1	99	98
COc1ccc(-c2cc(OC(=O)c3cccc(C)c3)c3c(C)oc(C)c3c(=O)c2)cc1	114	98
COc1ccc(-c2noc(-c3ccc(N4CCOCC4)c([N+](=O)[O-])c3)n2)cc1	105	112
CCC(C(=O)NCCc1ccc(OC)c(OC)c1)n1nc(C)c2sc3ccccc3c2c1=O (stereo not given)	109	111
CCC(C)OC(=O)/C(C#N)=C\c1ccc(-c2ccccc2Cl)o1 (stereo not given)	105	112
CCN(CC)c1ccc(NC(=O)C(NS(=O)(=O)c2cccs2)C(C)C)c(C)c1 (stereo not given)	101	98
CCN(c1ccccc1)c1nnc(NC(=O)Nc2ccc(Br)c(C)c2)s1	114	113
COc1ccccc1CNC(=O)C1CCN(c2ncnc3c2nc2n3CCCCC2)CC1	108	109
O=C(Nc1nnc(S(=O)(=O)N2CCCc3ccccc32)s1)c1ccccc1Cl	113	115
CSc1ncc(C(=O)NCc2cccc(C)c2)c(-c2ccccc2)n1	100	101
COc1cccc(C(c2c(O)cc(C)n(Cc3ccco3)c2=O)N2CCC(C)CC2)c1 (stereo not given)	115	117
COc1ccccc1C(=O)Nc1nnc(S(=O)(=O)N2CCCCCC2)s1	102	107
Cn1c(=O)c2cc(C(=O)NCCCN3CCN(c4cccc(Cl)c4)CC3)sc2c2ccccc21	101	103
COc1ccc(-c2cc(OC(=O)c3ccccc3C)c3c(C)oc(C)c3c(=O)c2)cc1	110	124
COc1ccc(-n2c(C)nc3c(cnn3-c3ccc(F)cc3)c2=O)cc1	108	106
CCc1ccc(NC(=O)N2CCN(C(=O)c3nsc4ccccc34)CC2)cc1	100	103
CCc1ccc(NC(=O)c2cc3c(=O)n(Cc4cccnc4)ccc3nc2C)cc1	100	106
COc1ccc(C(=O)N2CCc3cc(OC)c(OC)cc3C2COc2ccc3c(C)cc(=O)oc3c2)c(OC)c1 (stereo not given)	108	114
Cc1ccc2ncc(C(=O)Nc3ccc(OC(F)(F)F)cc3)c(=O)n2c1	98	104
O=C(CCn1ccc2cc(S(=O)(=O)N3CCCC3)ccc21)NCc1cccc(Cl)c1	106	109
CSCCC(NS(=O)(=O)c1ccc2c(c1)oc(=O)n2C)C(=O)N1CCN(c2ccc(C(C)=O)cc2)CC1 (stereo not given)	105	106
CCOc1ccc2oc(=O)cc(CN3CCN(C(=O)c4ccc(OC)c(OC)c4)CC3)c2c1	107	108
Cc1cccc(Cn2cc(C(=O)c3ccccc3)c(=O)c3cc4c(cc32)OCO4)c1	110	111
CCn1c(=O)cc(OCC(=O)N2CCN(c3cccc(Cl)c3)CC2)c2ccccc21	103	96
CC(C)CC(=O)N1c2nc(C(C)C)nn2C2(CCCCC2)[C@@H]2CCCC[C@@H]21	105	109
COc1cc(OC)cc(C(=O)Nc2ccc3c(c2)n(C)c(=O)c(=O)n3C)c1	101	106
COc1cccc(NC(=O)c2ccc3nc(CCc4ccccc4)oc3c2)c1	112	110
Cc1nc2ccc(S(=O)(=O)N(CC(=O)Nc3cccc(C)c3C)Cc3ccccc3)cc2s1	108	114
Cc1ccc(-n2ncc3c(NCCCN4CCOCC4)ncnc32)cc1	109	112
CC(Sc1nc(=O)cc(N)n1CCc1ccccc1)C(=O)Nc1cccc(Cl)c1 (stereo not given)	108	111
Cc1ccc(C)c(NC(=O)C(Cc2ccccc2)n2cccc2)c1 (stereo not given)	111	102
Cc1ccc(CNC(=O)CSc2nc3ccsc3c(=O)n2-c2ccc(C(=O)O)cc2)cc1	108	111
CCCCN(C)S(=O)(=O)c1ccc(NC2=NS(=O)(=O)c3ccccc32)cc1	105	110
C#CCSc1nc2sc3c(c2c(=O)n1Cc1ccccc1)CCCC3	104	103
Clc1ccc(-n2c(Cc3ccccc3)nnc2SCc2nc(-c3cccs3)no2)cc1	113	110
COc1ccccc1/C=C/c1nc(C#N)c(NCc2ccccc2)o1	109	112
COc1ccc(S(=O)(=O)N(Cc2nc(-c3ccc(Cl)cc3)no2)C2CCCCC2)cc1	102	91
CCCOc1ccc(-c2nonc2NC(=O)c2oc3ccc(C)cc3c2C)cc1OCCC	105	111
Cc1cc(C)c2c(-n3cccc3)c(C(=O)NCCc3ccccc3)sc2n1	104	110
Cc1cc(F)ccc1NC(=O)Cn1cc(S(=O)(=O)NC(C)C)c(S(=O)(=O)NC(C)C)c1	116	116
COc1ccc(OC)c(NS(=O)(=O)c2ccc(N3CCCCS3(=O)=O)cc2)c1	108	114
CC(C)OCCCn1c(=O)c2ccccc2n2c(-c3ccc(F)c(F)c3)nnc12	107	112
Cc1ccc(NC(=O)CCc2c(C)nc3c(-c4ccc(F)cc4)c(C)nn3c2C)cc1F	105	110
COc1ccccc1CNC(=O)c1cnc(N2CCCC2)nc1C	103	100
CCn1c(C(=O)N2CCC(C(=O)NCCc3ccc(OC)cc3OC)CC2)cc2sccc21	107	107
COc1ccccc1N1CCN(c2nc3ccc(C(=O)c4ccccc4)cc3n3c(C)nnc23)CC1	112	110

Assay outcomes: PubChem, ICCB-Longwood Screening Facility, Harvard Medical School
